Biofilm kill mix – mixtures killing C. albicans biofilm | inhibition, % at 7.6 µM | C. albicans biofilm persisters + clotrimazole, fluorescence viability; primary screen in compound mixtures of four per well | actives 0.02% (n = 120,000);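 active means inhibition above 30.3% in the primary screen of four-compound pools, then above 30% when the compound was retested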;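 further: compounds exposed to preformed 24 h biofilms for 48 h; the number belongs to the whole pool; some results filed as inactive read as strong as hits; inactives centre near 12; 0% = biofilm with clotrimazole alone and 100% = kill control; retested singly at about 60 µM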
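System: C. albicans CAF4-2 wild-type biofilms; Medium: RPMI/MOPS medium, pH 7.0; Reagent: Clotrimazole, 50 µg/mL; Times: biofilm formation 24 h, compound exposure 48 h, 37 °C; Detection: 2-h Alamar Blue fluorescence, 535/590 nm excitation/emission; Evaluation: percent inhibition of biofilm viability.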
Active calls of the source: *. An excerpt; rates above refer to the full screens.

Structure	Biofilm kill mix
Cc1nnc(SCc2nc3scc(-c4ccccc4)c3c(=O)[nH]2)s1	26
O=c1c2ccccc2ncn1-c1cccc(Cl)c1	11
Cc1ccccc1-n1nc(C)c2c1N=C1C(Cl)=CC(Cl)=CN1C2c1ccc(C(=O)O)cc1 (stereo not given)	9
O=C(COc1ccccc1)Nc1ccc2[nH]c(=O)[nH]c2c1	24
CCCCCc1nnc(NC(=O)c2ccc(=O)n(C)n2)s1	12
O=C(C[n+]1ccccc1)N/N=C/c1ccc(F)cc1	20
COC(=O)c1cccc(COC(=O)c2ccc(N(C)C)cc2)c1	13
NC1=NC(=O)/C(=C\c2cc([N+](=O)[O-])ccc2Cl)S1	1
CCc1nnc(NS(=O)(=O)c2ccc(NC(=S)NC(=O)c3ccncc3)cc2)s1	10
Cc1cccc(NC(=O)CN2C(=O)S/C(=C\c3ccccn3)C2=O)c1	12
OCCNCc1ccc(-c2ccccc2)cc1	25
O=C(Nc1cccnc1)c1cc(-c2ccc(F)cc2)on1	16
COc1ccccc1NC(=O)COn1nnc2ccc(S(=O)(=O)N3CCOCC3)cc21	7
CC12C(=O)N(c3ccc(C(=O)N4CCOCC4)cc3)C(=O)C1C1c3ccccc3C2c2ccccc21 (stereo not given)	13
CCC(=O)N1CCc2cc(S(=O)(=O)NC(C(=O)NC3CCCc4ccccc43)C(C)C)ccc21 (stereo not given)	8
O=C1C2C(c3ccccc3)(C(=O)N1c1ccc(Cl)cc1)C2(c1ccccc1)c1ccccc1 (stereo not given)	13
CCC(C)(C)n1nnnc1C(c1ccc2ncccc2c1)N1CCCCCC1 (stereo not given)	7
CN1C(=O)CSc2ccc(NC(=O)NCc3ccc(F)cc3)cc21	5
COc1cc(/C=N/NC(=S)NC2CC3CCC2C3)ccc1O (stereo not given)	12
CCOC(=O)/C(=C/Nc1ccc(F)c(F)c1)[N+](=O)[O-]	12
COCCNC(=O)c1ccc(-n2c(SCc3cc(F)ccc3F)nc3ccccc3c2=O)cc1	19
O=C(COC(=O)Cc1cccc2ccccc12)Nc1ccccc1-c1ccccc1	5
c1ccc(-c2nc3ccccc3c3nc4ccccc4n23)cc1	17
COc1ccc(-c2cc([C@H]3[C@@H]4C=CCC[C@@]4(C)C(=O)N3Cc3ccccc3)ccc2F)cc1	14
CCN(Cc1ccccc1)C(c1ccc(C(F)(F)F)cc1)c1nnnn1C(C)(C)C (stereo not given)	17
COc1ccc(Nc2nc(N)nc(CN3CCC(C)CC3)n2)cc1	5
O=C(NCc1ccccn1)c1cc(-c2ccccc2Cl)nc2ccccc12	11
CCOc1ccc(-n2c(=O)c3sccc3n(Cc3cccc([N+](=O)[O-])c3)c2=O)cc1	12
Cn1ncc(Cl)c1C(=O)N1CCN(c2ncccn2)CC1	17
CC(=O)Nc1ccc(-c2csc(NCc3ccco3)n2)cc1	9
CCOC(=O)/C(C#N)=C/c1cn(CCC(=O)O)nc1-c1cccc(Br)c1	31
CN(C)c1cc[n+](Cc2c(Cl)cccc2Cl)cc1	8
Cc1ccc(-n2c3nc(=O)[nH]c(=O)c-3cc3c(C)nn(-c4ccccc4)c32)c(C)c1	14
CCN(CC)c1ccc(/C=N/NC(=O)c2cccc(N3CCCC3=O)c2)cc1	9
CC(C)[C@H](NC(=O)OC(C)(C)C)C(=O)N/N=C/c1ccc2nccnc2c1	11
O=C(Nc1nc2c(s1)CN(Cc1ccccc1)CC2)c1c(F)cccc1F	16
COCCN(C(=O)C(C)C)c1nnc(-c2ccc(C(C)(C)C)cc2)s1	23
O=C(Nc1cccc(NC(=O)c2cccs2)c1)c1ccc2c(c1)OCO2	12
CCc1ccc(-n2c(C)nc3cc(C(=O)NCc4cccnc4)ccc32)cc1	7
CC(=O)Nc1ccc(OC(=O)c2ccc(Br)c([N+](=O)[O-])c2)cc1	29
CN1C[C@@H]2C(c3ccc(Cl)nc3)C3(c4ccccc4)CC2(C3)[C@H]1c1ccccc1 (stereo not given in full)	1
CCn1ccnc1CN(C)Cc1cn[nH]c1-c1ccc(F)cc1F	29
Cc1cccc(C(=O)Nc2ccc(O)cc2C(=O)O)c1	11
C/C(CCc1ccccc1)=N\NC(=O)c1ccccc1[N+](=O)[O-]	7
CCNc1nc(NCC)n2c(SC(C)C(=O)c3ccc(C)cc3)nnc2n1 (stereo not given)	14
N#CC1=C(N)N2C(=C(C#N)C1c1ccc(Br)cc1)Nc1ccccc12 (stereo not given)	17
COCC(=O)Nc1cc(Cl)ccc1C(F)(F)F	-1
CCOc1ccc(NC(=O)CSC2=NCCN2)cc1	3
Cc1ccccc1-n1cc(CNC(=O)CC2C(=O)NCCN2C/C=C/c2ccccc2)cn1 (stereo not given)	10
CC(C)N(C(=O)COC(=O)c1ccccc1C(=O)c1ccc(Cl)c([N+](=O)[O-])c1)C(C)C	15

Structural class: the entries above with a thiophene ring, fused or not
Structure	Biofilm kill mix
Cc1nnc(SCc2nc3scc(-c4ccccc4)c3c(=O)[nH]2)s1	26
CCOc1ccc(-n2c(=O)c3sccc3n(Cc3cccc([N+](=O)[O-])c3)c2=O)cc1	12
O=C(Nc1cccc(NC(=O)c2cccs2)c1)c1ccc2c(c1)OCO2	12

7 consecutive entries from above, for reference:
Structure	Biofilm kill mix
CCn1ccnc1CN(C)Cc1cn[nH]c1-c1ccc(F)cc1F	29
Cc1cccc(C(=O)Nc2ccc(O)cc2C(=O)O)c1	11
C/C(CCc1ccccc1)=N\NC(=O)c1ccccc1[N+](=O)[O-]	7
CCNc1nc(NCC)n2c(SC(C)C(=O)c3ccc(C)cc3)nnc2n1 (stereo not given)	14
N#CC1=C(N)N2C(=C(C#N)C1c1ccc(Br)cc1)Nc1ccccc12 (stereo not given)	17
COCC(=O)Nc1cc(Cl)ccc1C(F)(F)F	-1
CCOc1ccc(NC(=O)CSC2=NCCN2)cc1	3

Following part.
Structure	Biofilm kill mix
COc1cc(/C=C(\C#N)C(=O)Nc2ccc3ccccc3c2)c([N+](=O)[O-])cc1OC	4
Cc1cccc(NC(=O)c2ccc(COc3cccc4ccccc34)o2)n1	14
CCNc1c2c(nc3ccccc13)CC(C)(C)CC2=O	17
COc1cccc(C(=O)Nn2c(C)nnc2-n2nc(C)cc2C)c1	5
O=[N+]([O-])c1ccc(O)c(/C=N\N=C2c3ccccc3-c3ccccc32)c1	27
O=C(Nc1ccc(OC(F)(F)C(F)F)c(NC(=O)c2cccc(F)c2)c1)c1cccc(F)c1	11
CCc1cccc(NC(=O)c2cc(S(=O)(=O)N(C)C)ccc2N2CCCC2)c1	9
COc1ccc(C)cc1Nc1cc(C)nc2ncnn12	5
Cc1noc(C)c1COc1ccc(C(=O)OCC(=O)Nc2cccc(S(=O)(=O)N3CCOCC3)c2)cc1	9
Cc1ccc(Nc2nc3ccccc3n3nnnc23)cc1	2
CC1CCCCC1NC(=O)CN1CCN(Cc2ccccc2Cl)C1=O (stereo not given)	7
N#C/C(=C\c1ccc(O)c(Br)c1)C(=O)NCc1ccccc1	7
CCC1(c2ccc(F)cc2)NC(=O)N(CC(=O)Nc2ccc(-c3nc4ccc(C)cc4s3)cc2)C1=O (stereo not given)	5
COc1ccc(-c2ocnc2C(=O)NCc2nn(-c3ccccc3)nc2C)cc1	8
COC(=O)C(NC(=O)c1ccccc1)(Nc1cc(C)cc(C)n1)C(F)(F)F (stereo not given)	3
Cc1cc(C)nc(NC(=O)Nc2ccc3c(c2)OCO3)c1	6
Cc1ccc(/C=C/C(=O)Nc2ccc(S(=O)(=O)Nc3ncccn3)cc2)cc1	17
COc1cccc(C(=O)NNC2OC(CO)C(O)C2O)c1 (stereo not given)	0
O=C(N/N=C/c1ccc(Br)s1)c1cccnc1	10
COc1cc(CN(C2CCCCC2)S(=O)(=O)c2ccc(S(=O)(=O)N(C)C3CCCCC3)cc2)cc(OC)c1OC	4
Nc1scc[n+]1Cc1cccc2cccnc12	21
O=C(Nc1ccc(O)c(-c2nc3ccccc3s2)c1)C1=COCCO1	14
C/C(=N\NC(=O)CSc1nc2ccccc2o1)c1cccc(O)c1	10
O=C(CCS(=O)(=O)c1ccc(Br)cc1)Nc1ccccn1	6
CC(=O)N1CCCN(Cc2cn(-c3cc(C)ccc3C)nc2-c2ccccc2)CC1	26
Cc1ccc(NS(=O)(=O)c2cccc(C(=O)NCCc3c[nH]c4ccccc34)c2)c(C)c1	16
O=C1c2ccccc2C(=O)N1CN(C(=O)c1ccccc1)c1ccc(O)cc1	14
CS(=O)(=O)c1nc(-c2ccccc2)c(-c2ccccc2)[nH]1	-4
Cc1nn(-c2ccccc2)c(Cl)c1/C=C1\SC(=S)N(C)C1=O	10
Cc1ccc(C2(c3noc(CN(C)Cc4ccccn4)n3)CCCC2)cc1	-14
Cc1cccc(C(=O)N2CCc3cc(-c4nc(NC(=O)Cn5nnc6ccccc6c5=O)sc4C)ccc32)c1	12
O=c1c2[nH]c3ccccc3c2nc2n1CCCS2	16
O=C(Nc1cccc(S(=O)(=O)NC2=NCCCCC2)c1)C1COc2ccccc2O1 (stereo not given)	12
O=C(/C=C/c1ccc(S(=O)(=O)N2CCOCC2)cc1)N1CCN(c2ccc(F)cc2)CC1	13
CNC(=S)Nc1cccc([N+](=O)[O-])c1	0
O=C(Nc1ccccc1)Nc1ccc(C(=O)N2CCCC2)cc1	5
CCN(CC)CCCNC(=O)Cn1nc([N+](=O)[O-])c(Cl)c1C	26
CN(CC(=O)Nc1ccccc1Cl)C(=O)CSc1nnc(-c2ccco2)o1	9
CSCCC(NS(=O)(=O)c1ccc2c(c1)oc(=O)n2C)C(=O)NCc1ccc(C)cc1 (stereo not given)	12
CCCCn1c(SCC(=O)NNC(=O)c2ccco2)nnc1-c1ccco1	9
CC(=O)NC1=NC(=O)/C(=C/c2cc(C)n(-c3ccc(NC(C)=O)cc3)c2C)S1	17
CCOC(=O)CN=C(NS(=O)(=O)c1ccc(Cl)cc1)c1ccccc1	8
O=C(O)CSc1nnc(NC(=O)c2ccc3c(c2)OCO3)s1	18
COC(OC)c1ccnc(SCc2ccccc2Cl)n1	11
Cc1ccc(NC(=O)c2ccc(F)cc2F)cc1NS(C)(=O)=O	21
COc1ccc(C(O)(CCc2ccccc2)CCN2CCCCC2)cc1 (stereo not given)	10
O=C(Oc1ccccc1N1C(=O)C2CCCCC2C1=O)c1ccccc1F (stereo not given)	11
Cn1c(SCc2cccc([N+](=O)[O-])c2)nc2c(c1=O)SCC2	14
Cc1cc(F)ccc1NC(=O)c1ccc(NS(=O)(=O)c2cc(C(C)(C)C)ccc2C)cc1	-12
COc1ccc(NC(=O)c2cc(-c3ccccc3)nc3c2c(C)nn3-c2ccccc2)c(OC)c1	14

Going on with the list.
Structure	Biofilm kill mix
CCO[C@H]1OC(C(N)=O)=C[C@@H](C2CCCCC2)[C@@H]1CCCO	18
COc1ccccc1C(=O)N1c2ccccc2Sc2ccccc21	10
CCOC(=O)N1CCC2(CC1)C(C#N)=C(N)OC1=C2C(=O)CCC1	7
CCOC(=O)C1=C(N)N(c2ccc(C)cc2)C2=C(C(=O)CCC2)C1c1cccs1 (stereo not given)	11
CC(=O)Nc1ccc(S(=O)(=O)N2c3ccccc3C(C)=CC2(C)C)cc1	10
CCCCN(C(=O)c1cccc(S(=O)(=O)N2CCOCC2)c1)c1c(N)n(CCC)c(=O)[nH]c1=O	3
CCOC(=O)c1c(C)[nH]c2c1-c1ccccc1C(=O)C2=O	15
O=C(NNc1ccc([N+](=O)[O-])cc1)c1ccccc1F	11
CN(C)CC/C=C1\c2ccccc2Sc2ccc(Cl)cc21	6
Cc1ccc(N2C(=O)CC(Sc3nc(-c4ccccc4)c4cc(Cl)ccc4n3)C2=O)c(C)c1 (stereo not given)	2
Cc1ccc(C(=O)N2CCCCC2C(=O)O)o1 (stereo not given)	17
COc1ccc(CCNC(=O)CC2SC(=Nc3cc(C)cc(C)c3)NC2=O)cc1OC (stereo not given)	4
Cc1ccc(OCCC(=O)OCC(=O)Nc2cc(S(=O)(=O)N(C)C)ccc2C)cc1	3
CN(C)C(=O)c1ccc(NC(=O)c2cc(-n3cnnc3)ccc2Cl)cc1	12
O=C(Nc1ccc2snnc2c1)N1CCSCC1	3
Cc1ccc(NC2=C(NC(=O)c3ccccc3)C(=O)c3ccccc3C2=O)cc1Cl	23
O=C(O)C1=C(C(=O)Nc2cccc(C(F)(F)F)c2)CCCC1	12
COCCCNC(=O)Cn1c(=O)n(Cc2ccccc2Cl)c(=O)c2cc(OC)c(OC)cc21	5
COCCN(C(=S)Nc1cccc(C)c1)C(C)c1cccs1 (stereo not given)	14
CCCCn1c(N)c(N(CCOC)C(=O)CCc2ccc(OC)cc2)c(=O)[nH]c1=O	8
CCN(CC)S(=O)(=O)c1ccc(NC(=O)c2cc(-c3ccccc3)nc3ccccc23)cc1	1
Cc1cc(C(=O)N/N=C/c2cccn2C)no1	8
COc1ccc(O[C@H]2C=C[C@@H](c3ccccc3)O[C@@H]2COC(=O)CC/C(C)=N/O[C@H](C)c2cn([C@@H]3COC[C@H]3O)nn2)cc1	14
O=C(CCC1CCCCC1)NCc1ccccn1	11
Cc1cccc(C(=O)N[C@H](C(=O)Nc2nc3ccccc3[nH]2)C(C)C)c1	13
O=C(NCc1ccco1)c1cnn2cccnc12	-6
O=C(N/N=C/c1ccc(Br)cc1)c1cc[n+](Cc2ccccc2)cc1	1
